CtBP-E1A inh: qHTS Assay for Inhibitors of the CtBP/E1A Interaction; AlphaScreen GST-E1A/His-CtBP binding, 1536-well; stronger effect = lower value; control for the full effect not named in the record; hit rate 0.49% among 340,000; activity change, % (test concentration not listed); in the data active means activity change below about -65%; inconclusive means about -30% to -65%; inactive means above about -30%; further: on the % scale 0 is the no-effect control and ±100 the full control effect; compound concentration not given in the record
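GST-E1A and His-tagged CtBP (125 nM each as 5X stock) were preincubated with pin-transferred compound for 2 h at 37 °C in the dark, then glutathione donor and nickel acceptor beads were added for 1 h before AlphaScreen reading.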
gsp antagonist: qHTS for Antagonists of gsp, the Etiologic Mutation Responsible for Fibrous Dysplasia/McCune-Albright Syndrome: qHTS; gsp-mutant cells, cAMP HTRF, 30 min; control for the full effect not named in the record; Potency, µM (top dose mostly 76.9 µM), for inactives: at the top dose activity change, negative = inhibition, usual class: inhibitors; hit rate 0.4% among 340,000; AID 624288, 2012; active = falling curve of any shape with a large fitted effect; inconclusive = falling curve, mostly with a smaller effect; inactive = flat or rising curve; cell line not stated here;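 further: intracellular cAMP measured with PDE inhibitor Ro 20-1724 present during compound exposure; potency means the concentration at half of the fitted maximal effect; on the % scale 0 is the no-effect control and ±100 the full control effect; nearly all actives have a fitted effect of over 65% in size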
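HTRF cAMP measurement after 30 min RT detection following 30 min, 37C compound treatment alongside […] (added as 300 uM solution) in G418-selected cells seeded at 2000/well and grown 16–24 h.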
Sfp inh: qHTS Assay for Inhibitors of Bacillus subtilis Sfp phosphopantetheinyl transferase (PPTase); hit rate 3.5% among 310,000; Biochemical Sfp PPTase activity, qHTS; 4'-phosphopantetheinyl transferase ffp (Bacillus subtilis), Q9F4F7; Potency, µM, for the others: max response, negative = inhibition, hits mostly inhibitors; active means well fitted inhibition curve with a large enough effect; inconclusive means small, poorly fitted or top-dose-only effect, or another doubt; inactive means no such curve, though single readings can be large or run the other way;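 further: the enzyme is Sfp with the accession as filed and its product quenches rhodamine fluorescence; potency means the concentration at half of the fitted maximal effect; 0% = enzyme reaction without inhibitor and -100% = no enzyme wells; top concentration of the series not given in the record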
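After 15 min at room temperature with compound, 15 nM Sfp received 5 uM rhodamine-CoA plus 12.5 uM BHQ-2-ybbR (50 mM Hepes pH 7.6, 10 mM MgCl2). Rate came from the fluorescence difference over 30 min, ex 525/em 598 nm.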
ClpP mod: qHTS Assay for Activators of ClpP. purified B. subtilis ClpP, FRET peptide cleavage, 20 min. Potency, µM (titrated, usually from 57.5 µM), for the others: top-dose activity change, negative = active. hit rate 1.9% among 340,000. AID 651965, 2013; active = well fitted falling curve with a large enough effect; inconclusive = small, poorly fitted or top-dose-only effect; inactive = no such curve, though single readings can be large or run the other way; further: potency means the concentration at half of the fitted maximal effect; the source files actives as falling curves though it sought activators and does not explain the sign; nearly all actives have a fitted effect of over 65% in size; many hits overshoot -100%
Target sequence (P80244 whole entry, looked up): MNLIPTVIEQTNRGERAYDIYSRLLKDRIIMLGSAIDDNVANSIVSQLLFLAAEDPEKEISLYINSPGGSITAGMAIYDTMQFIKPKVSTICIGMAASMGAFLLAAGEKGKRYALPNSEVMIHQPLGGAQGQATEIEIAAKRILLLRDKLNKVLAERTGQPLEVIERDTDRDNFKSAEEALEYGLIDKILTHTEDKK
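Buffer: 100 mM Tris/HCl pH8, 100 mM KCl, 0.05% low protease BSA, 2.5% glycerol, 0.01% Tween-20. ClpP 10 microg/mL final; 20 min RT; delta FRET normalized to ADEP and DMSO controls.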
Menin MLL FP FL: qHTS Assay for Inhibitors Targeting the Menin-MLL Interaction in MLL Related Leukemias: Competition With Fluorescein Labeled MLL-derived Peptide. FP activity change, % at 61.4 µM. Fluorescence polarization, fluorescein-MLL peptide displacement from menin. 290,000 tested, under 10 active; inconclusive = falling polarisation curve, or a change in total fluorescence; inactive = total fluorescence flat and polarisation flat or rising; no compound was filed as active; the % refers to the polarisation; negative = inhibition;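 further: % of control where 0% means no effect; inhibitors lower the polarisation; unlabelled MLL peptide was the positive control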
TRPV1 PAM: HTS Assay for Compounds that Act as Potentiators of the Vanilloid Receptor 1 | Transient receptor potential cation channel subfamily V member 1 (Homo sapiens), Q8NER1 | TRPV1-expressing cells, Fluo-8 calcium influx, capsaicin EC20 potentiation; host cell line not named in the record; control for the full effect not named in the record | potentiation, % at 8.33 µM | hit rate 0.02% among 320,000; active means potentiation above 80%; inconclusive means 30% to 80%; inactive means below 30%; further: 0% is about no effect
Target sequence (Q8NER1 whole entry, looked up): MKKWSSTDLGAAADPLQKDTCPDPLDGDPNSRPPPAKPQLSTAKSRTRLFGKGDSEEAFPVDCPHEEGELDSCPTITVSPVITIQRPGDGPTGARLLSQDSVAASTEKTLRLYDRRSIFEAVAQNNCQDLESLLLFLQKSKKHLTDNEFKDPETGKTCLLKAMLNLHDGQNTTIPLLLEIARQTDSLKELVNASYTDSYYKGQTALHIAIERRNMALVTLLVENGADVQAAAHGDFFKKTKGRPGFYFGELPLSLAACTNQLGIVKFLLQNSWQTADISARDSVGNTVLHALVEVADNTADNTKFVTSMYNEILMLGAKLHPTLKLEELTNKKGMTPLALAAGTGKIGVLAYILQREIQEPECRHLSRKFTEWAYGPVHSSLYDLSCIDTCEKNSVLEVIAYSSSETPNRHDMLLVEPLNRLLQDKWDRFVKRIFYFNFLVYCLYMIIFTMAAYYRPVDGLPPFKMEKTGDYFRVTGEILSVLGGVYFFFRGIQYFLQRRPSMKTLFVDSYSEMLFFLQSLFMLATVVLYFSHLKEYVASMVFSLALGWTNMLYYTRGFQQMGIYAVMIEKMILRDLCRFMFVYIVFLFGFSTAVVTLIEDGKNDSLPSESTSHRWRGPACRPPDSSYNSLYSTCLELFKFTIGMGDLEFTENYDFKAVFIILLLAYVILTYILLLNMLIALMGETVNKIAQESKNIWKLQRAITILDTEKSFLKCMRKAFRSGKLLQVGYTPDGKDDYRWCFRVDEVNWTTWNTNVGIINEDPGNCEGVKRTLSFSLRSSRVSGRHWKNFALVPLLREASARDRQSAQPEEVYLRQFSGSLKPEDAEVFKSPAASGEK
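Cells expressing TRPV1 were dye-loaded with Fluo-8 and read kinetically: 10 s baseline, 3 min after compound (agonist portion), then 2 min after EC20 capsaicin (allosteric enhancer portion). Calcium-bound dye fluorescence at 480/520 nm.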
gsp agonist: qHTS for Agonist of gsp, the Etiologic Mutation Responsible for Fibrous Dysplasia/McCune-Albright Syndrome: qHTS. gsp mutant cells, cAMP HTRF, 30 min; control for the full effect not named in the record. Potency, µM (highest dose often 76.9 µM), inactives show top-dose activation (cAMP increase), hits mostly activators. hit rate 0.13% among 340,000; active = well fitted activation curve with a large enough effect; inconclusive = small, poorly fitted or top-dose-only effect, or another doubt; inactive = no such curve, though single readings can be large or run the other way; cell line not stated here;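 further: phosphodiesterase inhibitor Ro 20-1724 added with compounds to block cAMP breakdown; potency means the concentration at half of the fitted maximal effect; nearly all actives have a fitted effect of over 60% in size; about a fifth of the inactives were tested at one dose only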
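Cells stably selected in G418 were plated at 2000/well, grown 16-24 hr, then given compounds in DMSO with the PDE inhibitor […] (300 uM solution added) for 30 min at 37C; cAMP was read by HTRF.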
Starred values were filed as active, the others as inactive; i = inactive; ? = inconclusive; nt = not tested or not shown; & = joins results of further samples; [ ] = dose if it differs, or a comment.

SMILES	CtBP-E1A inh	gsp antagonist	Sfp inh	ClpP mod	Menin MLL FP FL	TRPV1 PAM	gsp agonist
CCn1c(SCC(=O)Nc2nc(-c3ccccc3)cs2)nc2c1c(=O)n(C)c(=O)n2C	8	-8%	9%	0.6%	-0.6	17	-6%
O=C(c1ccc(S(=O)(=O)c2cccc(Cl)c2)c([N+](=O)[O-])c1)N1CCN(c2ccccn2)CC1	5	-43%	-18%	nt	-2.4	9	-18%[15.4 µM]
Cc1cc(C(=O)COC(=O)c2ccccc2O)c(C)n1Cc1cccs1	1	-9%	3%	?	-2.1	-11	-40%
COc1ccc(/C(O)=C2/C(=O)C(=O)N(Cc3cccnc3)C2c2ccco2)cc1OC (centres undefined)	-3	1%	10%	1.1%	2.6	-6	?
Fc1ccc(CSc2ncnc3sc4c(c23)CCCC4)cc1	11	-28%	-5%	0.1%	-0.8	2	16%
Cc1ccc(C2CCN(C(=S)Nc3cccc(Cl)c3)C2)cc1 (centres undefined)	0	?	0%	1.0%	-2.4	-5	-10%
CCCS(=O)(=O)Nc1c(C(=O)O)[nH]c2ccccc12	1	8%	18%	?	-3.9	6	12%
CCOC(=O)c1c(N)sc2c1CCC(C)C2 (centres undefined)	-6	-3%[15.4 µM]	50µM*	1.8%	-0.8	14	?
Cc1cc(/C=N/NC(=O)C(O)(c2ccccc2)c2ccccc2)c(C)n1-c1ccccc1	nt	73%[activator]	-9%	-14%	7.1	2	-6%
N#C/C(=C\c1ccc(OCCN2CCOCC2)cc1)C(=O)Nc1ccc(S(N)(=O)=O)cc1	-9	1%	0%	-2.4%	nt	-8	13%

Six entries from above, comma-delimited.
compound,CtBP-E1A inh,gsp antagonist,Sfp inh,ClpP mod,Menin MLL FP FL,TRPV1 PAM,gsp agonist
Fc1ccc(CSc2ncnc3sc4c(c23)CCCC4)cc1,11,-28%,-5%,0.1%,-0.8,2,16%
Cc1ccc(C2CCN(C(=S)Nc3cccc(Cl)c3)C2)cc1 (centres undefined),0,?,0%,1.0%,-2.4,-5,-10%
CCCS(=O)(=O)Nc1c(C(=O)O)[nH]c2ccccc12,1,8%,18%,?,-3.9,6,12%
CCOC(=O)c1c(N)sc2c1CCC(C)C2 (centres undefined),-6,-3%[15.4 µM],50µM*,1.8%,-0.8,14,?
Cc1cc(/C=N/NC(=O)C(O)(c2ccccc2)c2ccccc2)c(C)n1-c1ccccc1,nt,73%[activator],-9%,-14%,7.1,2,-6%
N#C/C(=C\c1ccc(OCCN2CCOCC2)cc1)C(=O)Nc1ccc(S(N)(=O)=O)cc1,-9,1%,0%,-2.4%,nt,-8,13%

The list continues.
SMILES	CtBP-E1A inh	gsp antagonist	Sfp inh	ClpP mod	Menin MLL FP FL	TRPV1 PAM	gsp agonist
COc1ccc(Cl)cc1NC(=O)CCNS(=O)(=O)c1cccc2nonc12	1	-5%	20%	nt	-1.0	2	-2%
O=C(CCC1CCCC1)N1CCN(S(=O)(=O)c2ccc(Br)cc2)CC1	6	6%	nt	-1.6%	nt	-14	-21%
O=C(NCCc1cccs1)C1CC(c2cccc([N+](=O)[O-])c2)=NO1 (centres undefined)	2	6%	0%	-0.8%	4.2	14	nt
Cc1ccc(NC(=O)C(=O)NCCN2CCN(S(C)(=O)=O)CC2)cc1	-1	4%	14%	nt	0.8	4	0%
O=C(Nc1ccnn1C1CCN(Cc2ccc(C#CCCO)cc2)CC1)c1cccc(F)c1	4	4%	8%	-0.5%	nt	-3	0%
COc1ccc2c(c1)c(=O)cc(C)n2CC(=O)NCc1ccco1	-9	-5%	8%	-9.6%	3.6	-2	-7%
COc1ccc(C2c3ccc(O)cc3Oc3ncn(Cc4ccco4)c(=N)c32)cc1 (centres undefined)	-9	-3%	?	-1.4%	?	-26	-1%
CCOC(=O)N1CCN(CCC(=O)Nc2cccc(Cl)c2C)CC1	12	10%	-5%	-2.3%	0.5	?	5%
COc1cc(NC(C)CCc2ccccc2)cc(OC)c1OC (centres undefined)	-6	-9%	-20%	-0.7%	-0.7	9	1%[15.4 µM]
CC(C)Cc1ccc(C#N)c(SCC(N)=O)n1	11	4%	24%	1.4%	2.9	nt	-21%
NC(=O)C1=C[C@@H](c2ccc(C(F)(F)F)cc2)C[C@@H](OCCCCO)O1	4	4%	15%	-5.6%	4.7	6	nt
CC(OC(=O)Cc1n[nH]c(=O)c2ccccc12)C(=O)Nc1ccc(Cl)cn1 (centres undefined)	-15	-8%	9%	-1.7%	2.1	-19	-9%[15.4 µM]
O=C(CCOc1ccccc1)NCc1ccccc1	8	0%	8%	0.0%	4.3	-9	18%
O=C(COn1nnc2ccc(S(=O)(=O)N3CCOCC3)cc21)Nc1c(F)c(F)c(F)c(F)c1F	nt	6%	1%	-0.4%	2.2	2	?
CCOC(=O)N1CCN(C2CCCN(C(=O)c3ccccc3N(C)C)C2)CC1 (centres undefined)	-5	3%	7%	-8.1%	nt	-7	-1%
Cc1cc(NC(=O)c2ccc(C)s2)n(-c2nc3ccccc3[nH]2)n1	nt	-2%	4%	11%	-1.0	29	?
CCc1nnc(NC(=O)c2ccc(S(=O)(=O)N3CCCc4ccccc43)cc2)o1	4	-3%	6%	0.4%	-1.5	2	?
O=C(Nc1ccc(F)cc1F)C1CCCN1S(=O)(=O)c1cccc2nsnc12 (centres undefined)	0	9%	7%	-0.3%&-0.3%	nt	-8	-49%[inhibitor]
C[C@H](O)C#Cc1cnc2c(c1)C(=O)N([C@H](C)CO)C[C@@H](C)[C@@H](CN(C)Cc1ccc(-c3ccccc3)cc1)O2	-4	nt	nt	-7.5%	nt	nt	-101%
CC(C)CN1C(=O)NC(NS(=O)(=O)c2ccc(N)cc2)(C(F)(F)F)C1=O (centres undefined)	2	10%	4%	-3.7%	3.3	-3	-32%[inhibitor]
Cc1nc(CN2CCCCC2)c(O)c(=O)[nH]1	-5	4%	nt	-1.7%	nt	nt	-1%
O=C(CN1C(=O)C2CC=CCC2C1=O)Nc1nnc(SCc2c(Cl)cccc2Cl)s1 (centres undefined)	4	2%	17%	-0.9%	-3.0	3	-3%
CC(=O)c1cn(CCOc2ccc(F)cc2)c2ccccc12	-2	?	12%	0.4%	-3.7	7	27%
CCCCC1CCC(C(=O)OC(C)C(=O)Nc2ccc(NC(C)=O)cc2)CC1 (centres undefined)	9	-2%	12%	0.7%	nt	-8	?
COc1ccc(O)c(C(=O)c2cnn(-c3ccc(Cl)cc3)c2)c1	1	?	-13%	nt	?	15	18%[15.4 µM]
CC(C)OP(=O)(OC(C)C)/C(C=O)=N\Nc1ccc([N+](=O)[O-])cc1	nt	-32%	13%	1.4%	1.0	-5	1%
CC(=O)N1CCN(C(=O)c2ccc(-n3c(C)ccc3C)cc2)CC1	-2	12%	16%	7.4%	0.5	-2	-34%[inhibitor]
COc1ccc(COC(=O)C2=C(C)NC(=O)NC2c2cccc(OC)c2OC)cc1 (centres undefined)	6	-6%	-4%	-1.2%	-2.4	8	11%[15.4 µM]
CC(=O)N1CCc2cc(S(=O)(=O)NC(CC(C)C)C(=O)Nc3ccc4c(c3)OCCO4)ccc21 (centres undefined)	9	0%	21%	-1.4%	-2.3	6	-8%[15.4 µM]
CCc1nc(-c2cc3ccc(C)cc3[nH]c2=O)no1	-4	15%	13%	14µM*	0.9	0	20%
COc1cc(N)c(Cl)cc1C(=O)OCC(=O)N1CCCC1	20	-15%	12%	-0.5%	0.4	9	12%[15.4 µM]
COc1ccc([C@]23Cc4cc(C#N)ccc4C(O2)c2c(cc(C)n(-c4ccccc4)c2=O)O3)cc1	nt	nt	8%	nt	7.5[11.7 µM]	i	nt
Cc1cccc(C(=O)NNC(=O)CCCCC(=O)NNC(=O)c2cccc(C)c2)c1	0	0%	-7%	0.1%	-4.5	14	-11%[15.4 µM]
COc1ccc(/C=C2/C(=O)ON=C2C)cc1Br	10	-7%	?	0.3%	0.4	0	-26%[15.4 µM]
CC(=O)N1C(C(=O)O)Cc2c([nH]c3ccccc23)C1C (centres undefined)	4	-17%	6%	0.4%	-6.2	-5	1%[15.4 µM]
Cc1cccc(C)c1NC(=O)C/C(N)=N/O	-6	6%	16%	-1.4%	0.9	3	-35%[inhibitor]
CC(=O)Nc1cccc(C(=O)/C=C/c2cccs2)c1	-3	11%	-8%	-4.7%	5.1	0	-13%
CC(C)(C)C(=O)NCc1ccc(C(=O)CSc2nnc(C3CC3)n2C2CC2)s1	0	4%	nt	-2.2%	nt	-3	2%
CCCCn1c(N)c(N(CC(C)C)C(=O)CSCC(=O)Nc2cccc(C)c2)c(=O)[nH]c1=O	0	1%	nt	-3.3%	nt	7	10%[15.4 µM]
CC(C)OCCCNC(=O)c1cc(-c2cccnc2)nc2ccccc12	7	-6%	9%	-9.5%	-1.8	25	?
CC(=O)Nc1ccc(SCCN2CC[C@@H](O)CCC2=O)cc1	7	-11%	nt	0.1%&-0.6%	nt	6	-10%
Nc1nnc(CC(=O)N/N=C/c2ccc(-c3ccc(Cl)cc3Cl)o2)s1	-23	4%	-6%	0.2%	2.7	7	10%
CCCCCc1cc(=O)oc2c(C(CCN3CCCC(C)C3)c3ccc(N(C)C)cc3)c(OC)cc(OC)c12 (centres undefined)	nt	15%	56µM*	12%	-1.0	23	-13%

Printed as active in Sfp inh, among the entries above:
Molecule	CtBP-E1A inh	Sfp inh	Menin MLL FP FL	gsp agonist
CCOC(=O)c1c(N)sc2c1CCC(C)C2 (centres undefined)	-6	50µM*	-0.8	?
CCCCCc1cc(=O)oc2c(C(CCN3CCCC(C)C3)c3ccc(N(C)C)cc3)c(OC)cc(OC)c12 (centres undefined)	nt	56µM*	-1.0	-13%
